UUG fidelity – yeast start codon fidelity modulation; activity score, % at 18.7 µM; 350,000 compounds, 0.13% hits; AID 602363; S. cerevisiae UUG-firefly luciferase reporter, luminescence/redox ratio;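 active means replicate mean at a twofold rise or more, about +100% in these data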;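 further: firefly luciferase made from a UUG start codon reports start codon fidelity; reporter light over untreated wells divided by growth signal over untreated wells; some hits fall short of that in this replicate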
HIV Env fusion – inhibitors of HIV Env-mediated cell fusion; HeLa-JRFL Env/CEM21 cell fusion, luciferase; inhibition, % at 12.3 µM; 360,000 compounds, 1.1% hits; AID 651610;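 active means mean replicate inhibition score of at least 50 and every replicate individually at or above 50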;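 further: 0% = plate neutral controls and 100% = maraviroc near 300 nM; one replicate is shown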
MT1-MMP act inh – blocks activation of human MT1-MMP. P50281. HT1080 RFP-PRO-GFP cells, GFP/RFP ratio fluorescence, overnight; percent of plate control window, DMSO zero. GFP/RFP ratio change, % at 20 µM. 360,000 compounds, 0.061% hits;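 active means GFP/RFP ratio change of at least 30% with cell ATP level not reduced by more than half and red fluorescence within 50% of control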; further: strong numbers were not always called active
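Test system: HT1080 cells expressing an RFP-PRO-GFP fluorescent reporter construct / Compound dosing: single-point 20 µM compound, 1% DMSO / Schedule: cells overnight before dosing, compound overnight, 37 °C, 5% CO2 / Evaluation: GFP/RFP fluorescence ratio / Control set: DMSO and RFP-L50D-GFP cell wells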
eIF4H inh – inhibitors of RNA binding by human eIF4H | Q15056 | eIF4H fluorescence polarization binding assay | inhibition, % at 35 µM | 290,000 compounds, 0.94% hits | AID 2012;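 active means 50% or more with normal probe brightness, or confirmed in later tests; about a fifth of its hits are not listed in these tables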;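 further: calls also rest on retests at 20 µM and on dose response follow-up; 0% = protein and probe with vehicle and 100% = probe without protein; strong numbers were not always called active; many hits fall short of the cut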
CSC inhib – blocks cancer stem cells; cancer stem cell-like cells viability, luminescence; inhibition, % at 7.5 µM; 300,000 compounds, 1.1% hits; AID 2717;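 active means mean at 75% or more and at least half the replicates too; tested in HMLE shEcad cells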;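 further: 0% = median of negative and 100% = median of positive control wells; the first replicate is given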
PABP polyA inh – blocks human PABP binding to poly(A) RNA; P11940; fluorescence polarization; inhibition, % at 35 µM; 290,000 compounds, 1% hits; AID 2014;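 active means 50% or more with normal probe brightness, or confirmed in later tests; about a fifth of its hits are not listed in these tables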;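 further: calls also rest on retests at 20 µM and on dose response follow-up; controls were probe without protein and protein plus probe with vehicle; some compounds called inactive have numbers as strong as hits; many hits fall short of the cut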
Rce1 inhib – blocks yeast Ras-converting enzyme; 290,000 compounds, 0.27% hits; AID 2563; yeast membranes, quenched prenylated peptide cleavage fluorescence; calls only;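 active means fall in fluorescence gain of 50% or more versus controls, with final raw signal at or below 3038400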;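 further: plate controls were neutral control wells for no effect and wells lacking membranes for full effect; tested at 10 µM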
Target sequence (Q03530 whole entry, looked up): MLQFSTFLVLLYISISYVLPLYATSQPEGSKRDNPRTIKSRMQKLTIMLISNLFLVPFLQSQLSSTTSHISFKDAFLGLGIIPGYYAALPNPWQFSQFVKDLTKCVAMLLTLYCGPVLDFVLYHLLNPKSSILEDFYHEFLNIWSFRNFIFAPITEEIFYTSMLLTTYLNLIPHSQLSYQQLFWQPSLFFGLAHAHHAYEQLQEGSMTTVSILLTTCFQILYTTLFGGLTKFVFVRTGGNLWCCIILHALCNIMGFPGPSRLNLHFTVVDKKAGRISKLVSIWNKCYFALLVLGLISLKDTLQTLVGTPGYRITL
eIF4H inh retest – further read-out of eIF4H inh, marked with its call; inhibition, %; compound at 20 µM; confirmation average;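 mean of two retest wells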
PABP polyA inh retest – recorded beside PABP polyA inh, whose call it bears; inhibition, %; compound at 20 µM; confirmation repeats;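 mean of two retest wells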
MT1-MMP act inh RFP – also measured in MT1-MMP act inh; calls as there; RFP signal change, %; measured here: RFP expression control read;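 0 = vehicle wells; hits needed this value within 50% of zero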
Active calls of the source: *; i = inactive; / = no result given.

SMILES	UUG fidelity	HIV Env fusion	MT1-MMP act inh	MT1-MMP act inh RFP	eIF4H inh	CSC inhib	PABP polyA inh	Rce1 inhib	others
COc1ccc(/C=C/C(=O)N(c2ccccn2)C2CCCCC2)cc1OC	/	7	-3	-1	0	-1	-15	i
COc1cccc(-c2nc(CS(=O)(=O)CC(=O)N3CCc4ccccc43)c(C)o2)c1	-10	-2	2	-4	0	-5	5	i
CCCC1Nc2ccc(C(=O)O)cc2C2C=CCC12 (stereo unspecified)	-4	/	-2	10	96	17	3	i	eIF4H inh retest=-6;PABP polyA inh retest=2
O=C(O)COc1ccc2c(-c3ccccc3)cc(=O)oc2c1	-6	/	-4	1	-18	-9	3	i
COc1ccc(CCN(CC(=O)NCc2ccc(F)cc2)C(=O)c2snc(C(N)=O)c2N)cc1OC	-5	10	-4	-3	2	-7	5	i
Cc1cc(N2C(=O)C3C4c5ccccc5C(c5ccccc54)C3C2=O)no1 (stereo unspecified)	8	13	0	3	-8	3	-8	i
COc1cc2nc(CN3CCC(C(O)(c4ccccc4)c4ccccc4)CC3)[nH]c(=O)c2cc1OC	-12	-3	2	-2	-2	1	23	i
COc1ccc(C2CC(=O)C3=C(C2)Nc2ccccc2N(C(=O)CCC(=O)O)C3c2ccc(F)cc2)cc1OC (stereo unspecified)	23	-4	11	7	-4	0	10	i
O=S1(=O)CCOC[C@H](Cc2ccccc2)N1Cc1cccc(F)c1	-6	-4	2	0	/	3	/	i
CCN(CC)CCn1c(-c2ccccc2)nc(=S)c2c1CC(C)(C)OC2	/	-17	4	-2	-2	-7	-10	i
Cc1ccccc1OCC(=O)NNC(=O)CSc1nc(N)cc(N)n1	/	4	-3	4	2	9	15	i
O=C(c1cc(F)cc2c1OCOC2)N1CCN(c2ccc(F)cc2)CC1	/	23	-1	-1	-13	-10	-15	i
Cc1ccc(OCC(=O)OCc2c(C)noc2C)cc1C	3	-7	9	11	-8	4	-10	/
COc1ccc2oc(C(=O)C3CC3)c(N)c2c1	-23	/	2	-3	-7	10	8	i
O=C(NC(=S)NNC(=O)c1ccccc1O)c1cccnc1	/	7	-9	-5	4	-4	-6	i
CC1(C)C/C(=N/Nc2ccc([N+](=O)[O-])cc2[N+](=O)[O-])C(C)(C)O1	/	1	14	6	/	4	/	i
COC(=O)C(C)N(C#N)c1nc(C)cc(C)n1 (stereo unspecified)	-21	-14	-2	-2	-9	-7	2	i
CCOC(=O)CC1=CC(=O)Nc2ccccc2N1	-7	/	1	4	4	-4	0	i
CC(C)COC(=O)n1ccc(C(=O)N2CCCCC2)n1	-9	/	-1	1	-9	-19	-12	i
CC(C)CNc1ncnc2c1cnn2Cc1ccc(Cl)cc1	6	11	5	-1	-13	1	-14	i
CN(C(=O)c1ccc(OC2CCN(CCc3ccccc3)CC2)cc1)C1CCOCC1	/	0	2	7	11	-13	11	i
CN=C(Nc1ccc(Br)cc1)SC1CC(=O)N(c2ccc(OC)cc2)C1=O (stereo unspecified)	/	0	0	-4	3	-12	-3	i
CCc1nnc(NC(=O)CSc2nnc(-c3ccncc3)n2C)s1	/	-5	-4	1	0	-9	11	i
CCC(=O)Nc1ccccc1C(=O)OCc1ccc(C(=O)c2ccccc2)cc1	-9	-2	1	-5	-4	11	-2	i
CN(C(=O)COC(=O)/C=C/c1ccc2ccccc2n1)C1CCS(=O)(=O)C1 (stereo unspecified)	-13	23	-10	-9	-5	11	-21	i

Structures listed so far containing an aryl thioether with sulfur outside any ring (2):
SMILES	UUG fidelity	HIV Env fusion	MT1-MMP act inh	MT1-MMP act inh RFP	eIF4H inh	CSC inhib	PABP polyA inh	Rce1 inhib	others
Cc1ccccc1OCC(=O)NNC(=O)CSc1nc(N)cc(N)n1	/	4	-3	4	2	9	15	i
CCc1nnc(NC(=O)CSc2nnc(-c3ccncc3)n2C)s1	/	-5	-4	1	0	-9	11	i

The listing picks up, starting 4 compounds before the break.
SMILES	UUG fidelity	HIV Env fusion	MT1-MMP act inh	MT1-MMP act inh RFP	eIF4H inh	CSC inhib	PABP polyA inh	Rce1 inhib	others
CN=C(Nc1ccc(Br)cc1)SC1CC(=O)N(c2ccc(OC)cc2)C1=O (stereo unspecified)	/	0	0	-4	3	-12	-3	i
CCc1nnc(NC(=O)CSc2nnc(-c3ccncc3)n2C)s1	/	-5	-4	1	0	-9	11	i
CCC(=O)Nc1ccccc1C(=O)OCc1ccc(C(=O)c2ccccc2)cc1	-9	-2	1	-5	-4	11	-2	i
CN(C(=O)COC(=O)/C=C/c1ccc2ccccc2n1)C1CCS(=O)(=O)C1 (stereo unspecified)	-13	23	-10	-9	-5	11	-21	i
Cc1ccccc1C(=O)NNc1ccc([N+](=O)[O-])cc1	1	/	2	4	-6	-10	-1	i
C[C@H](NC(=O)c1nc[nH]c1C(=O)NCCCCCNC(=O)OC(C)(C)C)C(=O)OCc1ccccc1	-8	-22	8	0	2	-3	-2	i
N#Cc1nc(-c2ccco2)oc1N1CCOCC1	-10	-96	2	4	-1	-2	-12	i
CCC(CC)COC(=O)C1=C(C)NC(=O)NC1c1ccccc1Br (stereo unspecified)	-5	-4	-3	-10	3	9	-4	i
COc1ccc(NC2=C(c3ccc(OC)cc3)C(=O)c3ccccc32)cc1	-3	-26	0	-5	5	-4	3	i
CC(=O)Nc1ccc(OCCOc2ccc(/C=C3\C(=N)N4N=C(C)SC4=NC3=O)cc2)cc1	-21	-7	-2	0	10	-9	13	i
O=C(OCC(=O)N1CCCCCC1)c1cccc(Cl)c1	22	/	-2	-2	/	-7	/	/
CCCNC(=O)c1cccc(NC(=O)C(C)C)c1	3	-7	-1	2	-4	-11	2	i
CC(=O)c1ccc2c3c(ccc(O)c13)CC2	-18	/	-1	-3	1	7	5	i
COCCn1c(-c2ccc(Br)cc2)csc1=Nc1cccnc1	/	32	-6	-28	2	/	5	i
O=C(NNc1cccc(Cl)n1)c1cccnc1Cl	/	18	1	7	3	-1	1	i
CC1=C(OC(=O)c2ccc(Br)cc2)C(C)(C)C(c2ccccc2)OC1=O (stereo unspecified)	-9	/	1	0	2	-5	13	i
COc1ccc(-c2csc(C(O)(c3ccccc3)C(F)(F)F)n2)cn1 (stereo unspecified)	-13	24	0	-3	/	/	/	/
COc1ccc(CNC(=O)C2CCN(c3nn4c(=O)cc(C)nc4s3)CC2)cc1	-4	4	1	3	-9	-1	-11	i
Cc1nc2nc(SCC(=O)NCCCN3CCCCCC3)nn2c(C)c1Cc1ccccc1	16	23	-4	-1	25	-2	40	/
CCCc1cc(C(=O)OC)c(NC(=O)c2cc(C)on2)s1	10	-14	-3	-3	-3	3	-1	i
COCCNC(=O)C(c1ccc(C)o1)N(C(=O)c1snc(C(N)=O)c1N)c1cc(C)cc(C)c1 (stereo unspecified)	-13	0	-2	2	-8	-2	0	i
CCOC(=O)CC(=O)CSc1nc2ccccc2c(=O)n1-c1ccc(C(=O)N2CCOCC2)cc1	-11	-4	-2	2	-1	-4	1	i
O=c1c(N2CCOCC2)c(N2CCOCC2)c1=O	-11	7	-1	0	-2	-5	3	i
CCOC(=O)c1nn(-c2ccc(Cl)cc2C)ccc1=O	-7	7	1	5	-8	1	-14	i
COc1ccc2cc(C(=O)O)n(CC(=O)c3ccccc3)c2c1	0	-6	0	2	5	-24	9	i
COCC(C)NCc1ccc(C)cc1C (stereo unspecified)	-9	4	-8	-6	-10	-3	-11	i
c1ccc(C2=Nn3c(nnc3-c3ccccn3)SC2)cc1	-25	-53	/	/	-5	7	-5	i
COC(=O)C1C(=O)c2c([nH]c(C(=O)OCC3CCCO3)c2C)CC1C (stereo unspecified)	-21	-13	17	-1	-2	-6	-2	i
COc1ccc(S(=O)(=O)N2CCN(C3CCCC(C)C3)CC2)cc1 (stereo unspecified)	-3	19	-1	-2	13	/	3	i
SMILES	UUG fidelity	HIV Env fusion	MT1-MMP act inh	MT1-MMP act inh RFP	eIF4H inh	CSC inhib	PABP polyA inh	Rce1 inhib	others
COCCNC(=O)c1cc2nc3c(c(C(F)(F)F)n2n1)CCc1ccccc1-3	/	-6	-5	-4	-1	-9	-3	/
COc1ccc(-n2cc(-c3ccc(OC)c(OC)c3)[nH]c2=S)cc1	/	6	1	-3	1	-11	1	i
COC(=O)C1=C(NC(=O)c2ccccc2[N+](=O)[O-])CCS1	/	-6	2	8	2	-8	-2	i
Cc1ccc(C(=O)C(SC(C)(C)C)n2cncn2)cc1 (stereo unspecified)	-28	5	1	1	5	-1	6	i
O=S(=O)(NCC1CCCO1)c1cccc(S(=O)(=O)N2CCCC2)c1 (stereo unspecified)	6	/	4	2	-6	-6	-4	i
O=C(Cn1c(=O)oc2ccccc21)Nc1nc(-c2ccccc2)cs1	-10	-59	-2	0	-4	9	-6	i
COC(=O)Cc1c(C)c2ccc(OCC(=O)NCc3ccc4c(c3)OCO4)cc2oc1=O	-10	/	-6	-3	-14	-3	-7	i
COc1ccccc1CNS(=O)(=O)c1csc(C(N)=O)c1	-23	-7	2	-3	-4	18	2	i
COc1ccc(Br)cc1/C=N/N1CCN(Cc2ccccc2)CC1	-8	-2	-1	-1	-6	18	1	i
O=C(c1cc([N+](=O)[O-])ccc1Cl)N1CCN(Cc2ccccc2)CC1	3	26	2	1	-9	12	-3	i
O=C(NCc1ccc(F)cc1)C(C(=O)NCc1ccc(F)cc1)c1ncc(C(F)(F)F)cc1Cl	/	8	0	0	-1	-2	-10	i
Cc1cc(/C=C2\C(=N)N3N=C(CC(=O)N4CCOCC4)SC3=NC2=O)c(C)n1Cc1ccccc1	-11	-4	1	1	7	-8	2	i
COC(=O)Cn1c(N2CCCC2)nc2c1c(=O)n(C)c(=O)n2C	-2	4	-2	-2	0	-1	2	i
CCc1ccccc1NC(=O)c1cccs1	-19	-30	2	0	1	-5	2	i
CC(NC(=O)Cc1ccccc1)C(c1ccccc1)N1CCOCC1 (stereo unspecified)	/	17	-3	-3	6	-20	28	i
Cc1ccc(Cl)cc1N1CCN(S(=O)(=O)c2cn(C)cn2)CC1	/	1	1	0	-4	13	2	i
C=CCC(C)(NCc1ccccc1)c1ccc(C)cc1 (stereo unspecified)	/	16	-1	0	0	-10	5	i
CCc1nnc(NC(=O)c2ccc(OC)c(S(=O)(=O)N3CCCC3)c2)s1	2	-2	-6	-7	/	/	/	/
Cc1[nH]c2ccccc2c1/C=N/NC(=O)c1cccc(S(=O)(=O)Nc2cccc(C(F)(F)F)c2)c1	/	-2	-2	-5	5	25	1	i
O=C(NN1C(=O)NC2(CCCCC2)C1=O)c1cc2ccccc2o1	1	/	0	1	/	-3	/	/
CCN(CC(=O)Nc1ccccc1OC)CC(=O)Nc1c(Cl)ccc(C)c1Cl	16	-5	4	-1	-6	-5	3	i
COc1cccc(CNC(=O)C2CCN(S(=O)(=O)c3ccccc3)CC2)c1	-33	0	3	8	5	-6	-4	i
C#CCOCC1CNC(=S)O1 (stereo unspecified)	-16	-4	2	5	/	/	/	/
COc1ccc2nc(SCC(=O)O)nc(C)c2c1	-6	-57	18	9	2	7	13	/
CC(C)(C)NS(=O)(=O)c1ccc(N2C(=O)c3ccccc3C2=O)cc1	0	-4	-1	3	1	-1	1	i
COc1ccccc1-c1oc2ccccc2c1C#CC(C)(C)O	7	12	2	3	/	16	/	/
CN(CC(=O)Nc1ccc(F)cc1)C(=O)c1cccc(S(=O)(=O)N2CCN(c3ccc(F)cc3)CC2)c1	9	55*	-7	-27	/	/	/	i

Three entries from above, ordered by count of non-hydrogen atoms, falling.
SMILES	UUG fidelity	HIV Env fusion	MT1-MMP act inh	MT1-MMP act inh RFP	eIF4H inh	CSC inhib	PABP polyA inh	Rce1 inhib	others
CCc1nnc(NC(=O)c2ccc(OC)c(S(=O)(=O)N3CCCC3)c2)s1	2	-2	-6	-7	/	/	/	/
CC(NC(=O)Cc1ccccc1)C(c1ccccc1)N1CCOCC1 (stereo unspecified)	/	17	-3	-3	6	-20	28	i
CCc1ccccc1NC(=O)c1cccs1	-19	-30	2	0	1	-5	2	i

Screens (PubChem BioAssay)
